# BJeLR viability: kills HRASV12-expressing BJeLR cells | BJeLR (HRASV12) viability, CellTiter-Glo ATP luminescence, 48 h; reference of the scale not given here | inhibition, % (test concentration not listed) | 0.17% of 300,000 active | AID 1554;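 active = replicate mean above 50%; inconclusive = above 50% but judged a plate artefact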;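 note: 50 nL library stock added to about 25 µL; numbers are from one replicate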
# RN4220 kill: kills Staphylococcus aureus RN4220 | S. aureus RN4220 growth, OD600, 16 h | inhibition, % (no concentration beside the values) | 0.33% of 330,000 active | AID 1259311;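 active = z-score of -3 or lower and OD600 up to 0.18 on both plates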;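 note: plate controls were untreated cells for no effect and reference antibiotic for full effect; stock transfer was 100 nL into about 80 µL; one replicate is shown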
# Mtb hypoxia inh: Mtb hypoxia fluorescent reporter inhibition. M. tuberculosis hypoxia-regulated fluorescent reporter, fluorescence. fluorescence inhibition, % (no concentration beside the values). 0.1% of 300,000 active. AID 1159583;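 active = 35 to 45% if threefold the growth effect, above 45% if 1.5-fold the growth effect; inactive = the rest, general growth blockers included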;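 note: wells of about 50 µL received 100 nL stock; 0% = vehicle wells and 100% = reference inhibitor wells; whole bacteria with a GFP reporter of the hypoxia response; strong numbers were not always called active; many hits fall short of the cut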
# PrP 5UTR inh: suppresses PrP 5' UTR mRNA reporter expression. inhibition, % (test concentration not listed). cell-based PrP 5' UTR mRNA reporter, plate reader. 0.35% of 340,000 active;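 active = every replicate at 50% or more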;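 note: 0 = median of the neutral control wells; tested in H4 reporter cells; numbers are from one replicate; inactives centre near -14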
# ugtP null kill: growth inhibition of S. aureus ugtP deletion strain; S. aureus RN4220 ugtP deletion, OD600 growth, 16 h; some inactives read as strong as hits; growth inhibition, % (test concentration not listed); 0.54% of 330,000 active; AID 1259309;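 active = z-score under -3 and OD600 up to 0.15 on both plates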;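 note: plate controls were untreated wells for no effect and antibiotic for full effect; wells of about 80 µL received 100 nL stock; the first replicate is given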
# Autofluor counter: counter-screen for toxin protease inhibitors: compound fluorescence | compound autofluorescence counterscreen, microsphere flow cytometry; hits give high values | fluorescence intensity (no concentration beside the values) | 3.1% of 360,000 active;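 active = at least 3 SD above the mean of all compounds, about 16000 in these data; inconclusive = too few beads counted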;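 note: 100 nL of 1 mM stock went into each well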
# Mtb hypoxia inh growth: further read-out of Mtb hypoxia inh, marked with its call; growth inhibition, %; measured here: M. tuberculosis growth (absorbance);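 0% = vehicle and 100% = reference antibiotic; read after six days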
# The depositor's hits bear a star; u = inconclusive; x = not tested or not shown.
smiles	Mtb hypoxia inh	Mtb hypoxia inh growth	ugtP null kill	PrP 5UTR inh	RN4220 kill	BJeLR viability	Autofluor counter
CCCN1CN(Cc2ccccc2)CC2=C1CC(C)(C)CC2=O	-3	3	-7	11	-3.0	-22	6460
CCC(=O)Nc1nnc(Sc2ccc(N(C)C)cc2)s1	x	x	1	-13	-2.5	-1	2902
COCCCn1c(C)nnc1SCC(=O)Nc1cccc(C)c1	-4	7	4	-3	3.2	-3	4046
CCOc1cc(CNc2ccc3c(c2)CCC3)ccc1O	6	10	-3	-17	-2.0	23	4186
COc1ccc(C2CC(c3ccc(Br)cc3)=NN2C(=O)CSC2=NN3CCCC(=O)N=C3S2)cc1 (stereo not drawn)	x	x	x	-7	x	-5	5701
Cc1ccc(C(=O)Nc2ncn[nH]2)cc1	12	8	5	-1	3.8	0	3233
S=c1[nH]nc(CNc2cccc(Cl)c2)o1	3	3	1	-18	2.7	-6	4555
CC(C)(CN1CCCC1)NS(=O)(=O)c1ccc(Cl)cc1	-4	-2	12	5	0.7	1	3228
CCCn1c(C)cc(-c2csc(N)n2)c1C	0	0	-7	5	1.1	3	1445
CC(=O)c1c(C)[nH]c(C(=O)N(CCc2ccccc2)Cc2ccccc2)c1C	1	2	11	-19	3.4	2	2585
Cc1oc2c(CN3CCCC3)c(O)ccc2c(=O)c1Oc1ccccc1Br	-1	1	3	-7	4.6	8	9893
CC(=O)OCC(=O)[C@@]1(O)CCC2C3CCC4=CC(=O)CCC4(C)C3C(=O)CC21C (stereo partly drawn)	-20	-2	2	-9	0.9	9	3760
O=C1CCCC(O)=C1C1C2=C(CCCC2=O)OC2=C1C(=O)CCC2	-6	-1	4	-22	4.1	3	4167
Cc1ccc(-c2n[nH]c(=O)c3ccccc23)cc1S(=O)(=O)Nc1ccccc1	-4	-2	4	0	4.8	-1	2193
O=C(Nc1ccon1)C1CCN(S(=O)(=O)c2cccs2)CC1	x	x	2	-16	7.7	-5	2176
O=C(Nc1ccc(Cl)cc1)Nc1cccc(C(=O)O)c1	8	9	7	46	3.1	0	5036
CCCNC(=O)C(Cc1ccc(OC)cc1)NC(=O)c1ccc(C#N)cc1 (stereo not drawn)	0	11	-1	2	1.4	x	3179
COc1cc(/C=C/C(=O)OCC(=O)Nc2oc(C)c3c(C)n[nH]c(=O)c23)ccc1OC(F)F	-5	12	0	-6	2.7	-9	5637
CCOC(=O)C1=C(C)NC(=O)NC1c1ccc(NC(C)=O)cc1 (stereo not drawn)	-7	-8	-2	-23	1.6	-4	7134
O=C(N/C(=C\c1ccco1)C(=O)N1CCCCC1)c1ccc([N+](=O)[O-])cc1	3	9	4	-5	1.8	x	u
O=C(O)C1=C[C@@H](c2coc3ccccc3c2=O)C[C@@H](OCCCCO)O1	x	x	x	-6	x	9	2865
Cc1onc(-c2c(F)cccc2Cl)c1C(=O)Nc1ccc(S(=O)(=O)N2CCOCC2)cc1	8	7	1	-18	4.2	x	3884
COC(=O)c1cn(C(=O)c2ccc(OC)cc2)c2ccccc12	-2	-5	1	-23	5.2	13	4142
COC(=O)c1sccc1NC(=O)c1ccc(C)o1	x	x	-6	-10	5.4	-13	4838
O=C(CCSc1nnc2scc(-c3ccccc3)n12)Nc1nc(-c2ccccc2)ns1	0	4	39	-13	16	6	u

# Next part; the last 4 above are carried over.
smiles	Mtb hypoxia inh	Mtb hypoxia inh growth	ugtP null kill	PrP 5UTR inh	RN4220 kill	BJeLR viability	Autofluor counter
Cc1onc(-c2c(F)cccc2Cl)c1C(=O)Nc1ccc(S(=O)(=O)N2CCOCC2)cc1	8	7	1	-18	4.2	x	3884
COC(=O)c1cn(C(=O)c2ccc(OC)cc2)c2ccccc12	-2	-5	1	-23	5.2	13	4142
COC(=O)c1sccc1NC(=O)c1ccc(C)o1	x	x	-6	-10	5.4	-13	4838
O=C(CCSc1nnc2scc(-c3ccccc3)n12)Nc1nc(-c2ccccc2)ns1	0	4	39	-13	16	6	u
CCn1cc(CN2CCC(n3nccc3NC(=O)C3CCCC3)CC2)c(C)n1	-5	4	11	-17	5.3	-3	4583
COc1cccc(/C=C/C(=O)OCC(=O)Nc2cccc(S(=O)(=O)NC3=NCCCCC3)c2)c1	6	2	3	-6	4.1	x	3497
COc1ccc(-c2nc(CSCC(=O)N3CCN(C)CC3)c(C)o2)cc1OC	x	x	3	-1	3.0	3	5861
Nc1c(C(=O)NCCC2=CCCCC2)sc2ccc(S(=O)(=O)N3CCCCC3)cc12	1	-7	-3	-10	-0.7	7	2066
COc1cccc(OC)c1OCCN1CCN(C(c2ccccc2)c2ccccc2)CC1	-12	-6	-8	-7	-6.4	-11	3087
O=C(NNc1ccc(Cl)nn1)c1ccc(Cl)cc1	-2	-4	1	-24	-2.9	9	2519
Clc1ccccc1CSc1nnc(-c2cccnc2)n1Cc1ccco1	6	3	6	5	4.6	-3	15658
O=S(=O)(NCCc1cccs1)c1ccc(Br)cc1	-2	-8	11	6	2.5	-9	3095
CC1CCC2C(C1)Nc1c(C(=O)O)cccc1C2(C)C (stereo not drawn)	0	-11	-23	-35	9.8	1	4275
O=C(Cc1ccc(-n2c(=O)c3ccccc3n(Cc3ccccc3F)c2=O)cc1)NCC1CCCO1 (stereo not drawn)	-1	5	4	-23	0.8	-1	8873
Cc1cc(C2C(=O)C(C(=O)c3ccc(Cl)cc3)C(=O)CC2(C)C)on1 (stereo not drawn)	x	x	5	-19	0.9	4	5685
O=C(CP(=O)(c1ccccc1)c1ccccc1)Nc1nc2ccccc2s1	14	4	21	-26	-0.7	-10	6263
Cc1onc(-c2ccccc2Cl)c1C(=O)ON=C(N)c1ccc([N+](=O)[O-])o1	7	11	26	x	5.6	x	x
O=C(c1cccc(S(=O)(=O)N2CCc3ccccc32)c1)N1CCOCC1	8	2	2	-33	3.0	x	2776
O=C(N/N=C/c1cccnc1)c1cc(Br)ccc1O	x	x	x	-15	x	5	3667
O=C(NCc1ccc(F)cc1)c1cnc2sccn2c1=O	1	6	6	-34	0.5	-20	5230
Cc1nc(N=C(N)NC(=O)NC2CCCCC2)nc2ccccc12	18	26	0	x	0.9	x	x
O=C(NN=Cc1c(O)ccc2ccccc12)c1ccc(S(=O)(=O)N2CCCCC2)cc1	1	0	-5	x	12	x	x
CC(C)CCCCCCNC(=S)Nc1ccc(S(=O)(=O)N2CCOCC2)cc1	-1	-2	-8	-29	13	3	7706
Cc1cc(S(=O)(=O)Nc2c(C(=O)O)[nH]c3ccccc23)ccc1F	14	13	22	-20	9.4	-4	4547
O=C(Nc1cccc(Cl)c1)C1COc2ccccc2O1 (stereo not drawn)	7	12	1	-19	0.6	-15	3608
CCN(Cc1nc2ccccc2c(=O)[nH]1)C(=O)c1cccc(OCc2c(C)noc2C)c1	-12	1	-2	-31	1.4	x	u
CCCCCCCCCOC1OC(CO)C(O)C(O)C1NC(C)=O (stereo not drawn)	17	9	5	-5	1.5	1	2618
CC1(C)NC(=O)N(CCCCOc2cccc(C(F)(F)F)c2)C1=O	2	9	-2	-2	3.4	6	8242
COc1ccccc1C1C([N+](=O)[O-])=C(N)Oc2c1c(=O)oc1ccccc21 (stereo not drawn)	-13	1	2	-17	6.1	-3	4262
CCOC(=O)C1CCN(C(=O)/C(C)=C\c2ccccc2)CC1	9	5	13	-9	0.9	-2	2558
Cc1nc2cc(NC(=O)COc3ccccc3C#N)ccc2n1-c1ccccc1	x	x	x	-18	x	-3	4211
Cc1cc2nnn(-c3nnc(-c4ccccc4)c4ccccc34)c2cc1C	x	x	-2	-16	-2.0	-5	4826
CCc1nn(C(CC)C(=O)NCc2cccs2)c(=O)c2cc3occc3n12 (stereo not drawn)	2	4	5	-7	9.0	8	6060
CCOC(=O)C1CCCN(Cc2nc(Cc3cccc(F)c3)no2)C1 (stereo not drawn)	5	-1	-8	-5	3.7	3	4889
CC1=CCC(C(=O)O)(C(=O)N/N=C/c2cccnc2)C(c2ccccc2)C1 (stereo not drawn)	x	x	x	-17	x	-4	3835
O=C1CCCS(=O)(=O)c2ccccc21	9	6	10	-10	0.7	6	3331
CCCCNc1c(-c2ccc(OC)c(Sc3ccc(OC)cc3)c2)nc2cnccn12	8	10	13	-1	-0.8	x	3548
COc1ccc(-n2nc3c(c2NC(=O)C2CCCC2)CS(=O)(=O)C3)cc1	2	0	-1	-15	5.0	-6	9186
O=C(/C=C/c1ccccc1Cl)NC(=S)Nc1ccccc1C(=O)NC1CCCCC1	17	6	-8	-39	8.8	2	5223
O=C(C#Cc1cccc([N+](=O)[O-])c1)c1ccccc1	3	-2	98*	-12	75	5	6487
O=S(=O)(c1ccccc1C(F)(F)F)N1CCC(n2cnc3ccccc32)CC1	8	2	2	0	8.9	5	7732
N#CC(C(=O)C1CCCCC1)c1nc2ccccc2[nH]1 (stereo not drawn)	3	14	-8	-6	4.3	-9	5376
CC(C)(C)C(=O)Cn1nc(Cl)nc1Cl	5	-3	3	-35	2.4	-4	4491
COc1cccc(-c2noc(-c3ccc(Cl)nc3)n2)c1	9	19	0	-53	4.5	-4	4056
O=C(NC1CC1)C1=C[C@H](c2csc3ccccc23)C[C@H](OCCCCO)O1	x	x	x	-10	x	-1	3164
COc1cc(NS(=O)(=O)c2csc(C(N)=O)c2)cc(OC)c1	8	8	1	-11	3.2	-5	3140
Cc1nc2nc3c(c(=O)n2[nH]1)CCCC3	-2	4	-7	-8	1.8	-1	3357
CCOC(=O)C(C#N)(Cc1ccc2ccccc2n1)Cc1ccc2ccccc2n1	20	13	19	1	5.8	x	3517
CC12CCC(=O)N1C(C(=O)Nc1cccc(F)c1)CS2 (stereo not drawn)	12	1	13	-6	4.6	-6	u
O=c1[nH]c(CN2CCN(c3ccc(F)cc3)CC2)nc2ccccc12	6	3	-1	-15	-13	-8	3283
FC(F)(F)c1cccc(-c2cc(C3CCNCC3)[nH]n2)c1	13	2	0	-14	-1.9	-1	4698
O=C(Nc1ccc(OC(=O)N2CCCCC2)cc1)N1CCOCC1	16	9	-1	36	5.9	-2	3622
CC(C)C1CC(c2csc(N)n2)CCO1 (stereo not drawn)	1	10	8	-3	2.1	0	3385
CC1CCC2(CC1)NC(CO)(CO)CO2 (stereo not drawn)	1	-1	2	-19	2.1	1	11310

# More entries.
smiles	Mtb hypoxia inh	Mtb hypoxia inh growth	ugtP null kill	PrP 5UTR inh	RN4220 kill	BJeLR viability	Autofluor counter
C=C(C)C1Cc2c(C)nn(-c3cccc4ccccc34)c2C1 (stereo not drawn)	18	9	40	-13	-18	-3	2890
O=C(Nc1ccccc1Cl)C1CCN(S(=O)(=O)c2cccc3nonc23)CC1	12	5	10	5	9.1	-11	4678
O=C(Nc1cc(NC(=O)c2ccccc2F)ccc1Cl)c1ccccc1	-8	-17	5	8	2.6	-1	4028
COc1ccc(N(CC(=O)N2CCCCC2)S(=O)(=O)c2c(C)nn(C)c2C)cc1	1	1	-3	16	-3.1	5	5394
COc1ccc(N(CC(=O)NN=Cc2ccc3c(c2)OCO3)S(=O)(=O)c2ccccc2)cc1	-5	6	5	x	-0.2	x	x
N#Cc1ccc(COC(=O)c2cnc3ccccc3n2)cc1	-9	-10	0	-18	2.2	-10	4513
COC(=O)NN=Cc1cc(C)n(-c2ccc(F)cc2)c1C	9	8	5	x	1.1	x	x
Cc1ccc2oc(C(=O)Nc3ccc(S(=O)(=O)Nc4onc(C)c4C)cc3)cc(=O)c2c1	25	22	11	-29	3.1	9	5594
Cn1c(SCC(=O)NCCc2ccccc2)nnc1-c1ccco1	2	3	0	-26	1.0	-6	3706
COc1cc(Cn2c(C(=O)O)cc3sccc32)cc(OC)c1OC	-3	20	2	-19	6.0	-4	4039
CCCCC[C@H](O)/C=C/[C@@H]1[C@@H](C/C=C\CCCC(=O)OC)[C@@H](O)C[C@H]1O	x	x	x	-3	x	-3	5692

# Screening results deposited in PubChem by several laboratories.
